Source: PubChem
HNF4A DNA FP: change in binding of human HNF4A to DNA, primary screen, biochemical, fluorescence polarization, FITC-DNA; activity change, % at 10 µM; AID 1224865, 2016; Hepatocyte nuclear factor 4-alpha (Homo sapiens), P41235; hit rate 0.3% among 360,000; 1 h; in the data active = activity change above about 30%, passing the limit was not always enough;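 also: controls were the assay level and a saturating level of protein; the project sought stronger binding though the title names inhibitors; some compounds called inactive have numbers as strong as hits; positive values seem to mean higher polarization but the record does not say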
Target sequence (P41235 whole entry, looked up): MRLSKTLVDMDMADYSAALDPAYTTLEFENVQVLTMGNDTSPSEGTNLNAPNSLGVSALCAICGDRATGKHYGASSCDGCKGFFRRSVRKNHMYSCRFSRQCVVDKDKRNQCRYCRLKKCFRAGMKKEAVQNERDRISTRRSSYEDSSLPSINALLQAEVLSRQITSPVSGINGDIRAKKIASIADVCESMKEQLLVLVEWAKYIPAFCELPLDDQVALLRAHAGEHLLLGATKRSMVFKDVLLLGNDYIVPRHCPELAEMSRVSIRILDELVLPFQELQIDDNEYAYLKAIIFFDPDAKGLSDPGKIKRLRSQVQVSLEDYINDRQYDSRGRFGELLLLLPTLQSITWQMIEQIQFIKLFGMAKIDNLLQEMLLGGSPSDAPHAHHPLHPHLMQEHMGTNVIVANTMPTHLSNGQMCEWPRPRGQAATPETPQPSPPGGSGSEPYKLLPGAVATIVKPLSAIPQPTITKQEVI
Calb FLC: C. albicans growth inhibition with fluconazole, primary screen, CaCi-2 strain, Alamar Blue fluorescence; C. albicans CaCi-2 (fluconazole-resistant clinical isolate) + fluconazole, 48 h; growth inhibition, % (test concentration not listed); hit rate 0.57% among 300,000; AID 1979, 2009;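 active = most replicates above 75%; inconclusive = exactly half above 75%; inactive = most below 75%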;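 also: all wells also contain fluconazole at 8 µg/ml as a sub-toxic cotreatment; 0% = median of DMSO wells and 100% = median of geldanamycin control wells; wells of about 8 µL received 7.5 nL stock; the first replicate is given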
Beta2AR agonist: beta2AR agonists driving receptor internalization, primary screen, cell-based, FAP fluorogen, flow cytometry; Beta-2 adrenergic receptor (Homo sapiens), P07550; Am2.2-beta2AR cells; reference of the scale not given here; response, % (no concentration beside the values); hit rate 0.43% among 340,000; AID 504454, 2011;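 active = response above a set limit, near 3 SD of response in nonfluorescent compounds, cut at about 42% in these data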;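 also: stock transfer was 100 nL into about 11 µL; a reference agonist was the positive control; negative values mostly stem from fluorescent compounds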
Target sequence (P07550 whole entry, looked up): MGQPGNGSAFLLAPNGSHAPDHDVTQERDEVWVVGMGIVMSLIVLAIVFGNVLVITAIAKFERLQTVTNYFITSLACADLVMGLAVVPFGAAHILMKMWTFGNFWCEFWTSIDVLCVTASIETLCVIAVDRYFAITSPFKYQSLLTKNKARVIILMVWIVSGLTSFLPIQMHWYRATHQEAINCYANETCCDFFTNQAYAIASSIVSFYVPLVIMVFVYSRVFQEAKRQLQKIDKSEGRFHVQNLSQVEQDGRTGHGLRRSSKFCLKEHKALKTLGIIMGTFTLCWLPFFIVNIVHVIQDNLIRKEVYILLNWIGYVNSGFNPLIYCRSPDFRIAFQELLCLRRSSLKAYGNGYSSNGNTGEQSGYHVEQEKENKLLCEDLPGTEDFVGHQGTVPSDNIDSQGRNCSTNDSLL
RanGTP-Imp inh: inhibitors of RanGTP-importin-beta interaction, primary screen, biochemical, FRET, CFP-Ran, YFP-importin-beta, homogeneous; AID 2216, 2009; inhibition, % (test concentration not listed); hit rate 1.1% among 300,000; cell-free CFP-Ran/YFP-importin-beta FRET ratio; Ran GTPase (GTP-bound) - importin-beta complex;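 active = most replicates above 15%; inconclusive = exactly half above 15%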;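 also: 0% = DMSO wells and 100% = Ran loaded with GDP instead of GTP; wells of about 40 µL received 100 nL stock; the first replicate is given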
ALR H2O2 inh: inhibitors of human ALR sulfhydryl oxidase, primary screen, biochemical, H2O2 detection, HRP-luminol luminescence, single point; hit rate 3.8% among 290,000; purified ALR, DTT oxidation; FAD-linked sulfhydryl oxidase ALR (Homo sapiens), P55789; inhibition, % (test concentration not listed);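 active = mean and each replicate at 75% or more; inconclusive = only one of the two met; inactive = neither met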;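 also: stock transfer was 7.5 nL into about 7.5 µL; 0% = neutral wells and 100% = wells with inactivated enzyme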
Target sequence (P55789 whole entry, looked up): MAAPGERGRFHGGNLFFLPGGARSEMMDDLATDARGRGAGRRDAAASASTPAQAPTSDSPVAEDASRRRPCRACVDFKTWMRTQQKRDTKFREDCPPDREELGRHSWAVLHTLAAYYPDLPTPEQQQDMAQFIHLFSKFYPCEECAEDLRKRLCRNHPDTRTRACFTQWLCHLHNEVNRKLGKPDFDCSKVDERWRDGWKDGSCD
Vif TR-FRET: inhibitors of Vif binding to APOBEC3G peptide, primary screen, biochemical, TR-FRET, GST-Vif 1-94, biotin-A3G peptide, dose response retest (AID 1117319); Virion infectivity factor (Human immunodeficiency virus type 1 group M subtype B (isolate …; TR-FRET GST-Vif / biotin-A3G peptide binding; higher % means a stronger effect; test concentration not given here; strong numbers were not always called active; inhibition, %, or IC50 in µM where a hit was titrated; hit rate 0.57% among 260,000;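 active = above the screen mean plus three standard deviations and confirmed in dose response; inconclusive = results disagree or hit not tested in dose response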;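 also: Vif residues 1-94 fused to GST binding biotinylated APOBEC3G peptide 110-148; 0% = full assay without inhibitor and 100% = GST in place of GST-Vif; retest series ran down from 100 µM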
LANA-H2A inh: blockers of LANA interaction with H2A/H2B – biochemical, FP readout, HTS, primary screen; hit rate 0.6% among 320,000; Protein LANA1 (Human herpesvirus 8 type P (isolate GK18)), Q9QR71; inhibition, % (no concentration beside the values); cell-free LANA-H2A/H2B peptide, fluorescence polarization; AID 2629, 2010; in the data active = inhibition mostly above about 10%, no sharp cut-off; inactive = mostly below about 6.7%;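 also: stock transfer was 7.5 nL into about 10 µL; 0% = median of vehicle wells and 100% = median of positive control wells; one replicate is shown; the record names a cut of 25% in any replicate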
* = called active by the depositor; ? = inconclusive; / = no result given; & = joins results of further samples. Hits appear at their usual frequency; about 6.3% have a hit in one of these screens.

Fields – HNF4A DNA FP	Calb FLC	Beta2AR agonist	RanGTP-Imp inh	ALR H2O2 inh	Vif TR-FRET	LANA-H2A inh
Cc1nnsc1C(=O)N1CCCC(N2CCN(c3cccc(C(F)(F)F)c3)CC2)C1 (centres undefined)
    0.6	-5.9	15.0	-0.6	0.7	/	-0.9
C=CCn1c(=O)c2c(nc3n2CC(C)CN3Cc2ccccc2)n(C)c1=O (centres undefined)
    1.3	-1.1	4.5	-0.6	8.3	/	1.3
COc1ccc(C(C(=O)NC2CCCCC2)N(C(=O)c2sc(C)nc2C)c2ccccc2C)cc1 (centres undefined)
    5.1	35.7	-7.0	0.9	3.8	1.7%	2.2
COC(=O)N/N=C/c1cc(Cl)cc(Cl)c1OCc1ccccc1F
    0.9	-4.9	-3.9	0.7	-13.9	/	4.6
CCCCOC(=O)Cn1c2ccc(OC)cc2c2nc3ccccc3nc21
    -12.0	-6.2	-17.0	-26.7	/	1.0%	8.8
Cc1cccc(NC(=O)CCc2ccccc2)c1C
    0.8	-8.6	11.4	?	-2.4	1.3%	-1.9
N#CC1(C#N)CC(C=O)=C(N)C1(C#N)CC(=O)c1ccc(F)cc1 (centres undefined)
    2.5	-5.1	2.0	32.9*	-6.5	12.9%	-0.4
N#Cc1cnc(SCC(=O)N2CCCC2)nc1N
    -2.3	-9.4	-6.5	0.1	-14.1	-5.3%	-1.6
Cc1cc(F)ccc1S(=O)(=O)Nc1ccc(C(=O)N2CCCCC2)cc1
    -1.8	/	0.1	/	-4.7	-1.3%	8.6
CC(C)(C)NC(=O)CN(C(=O)C1CSC(=O)C1)c1ccccc1F (centres undefined)
    0.0	10.2	-4.5	-0.4	-12.9	-1.5%	-2.4
COc1ccc([N+](=O)[O-])cc1NC(=O)C(C)Sc1nc(C)c(C)c(C)n1 (centres undefined)
    -1.6	9.8	-16.3	?	/	?	0.1
c1ccc(-n2cccc2)c(N2CCCCC2)c1
    3.6	-12.8	1.4	-4.2	-7.2	/	-1.7
NC(=O)COC(=O)CC12CC3CC(CC(C3)C1)C2
    -1.7	3.1	-0.3	2.1	2.0	7.2%	-1.5
Cc1cc(OCC(=O)Nc2ccc(Br)cc2)cc2c1C(=O)CC(C)(C)O2
    3.3	-0.6	-1.0	-3.0	19.4	12.7%	1.1
Cc1ccc(OCCN(C)C(=O)C2CCC(=O)N(CCCN3CCCC3=O)C2)cc1 (centres undefined)
    2.2	10.1	2.1	-1.8	-2.9	/	6.6
CC(=O)n1c(=O)c2ccccc2c(=O)n1-c1ccccc1
    0.4	5.5	6.8	?	97.9*	-5.1%	4.3
CCOC(=O)Cc1csc(NC(=O)COc2ccc(C)c(C)c2)n1
    5.6	1.1	2.1	-0.8	25.4	2.0%	-4.8
Cc1cc2ccccc2c(=O)n1CC(=O)NCC(=O)N1CCN(c2cccc(Cl)c2)CC1
    5.2	3.5	-10.2	-3.6	-3.4	4.1%&-8.4%	2.6
COc1ccc(CCNC(=O)c2cc(C)oc2C)cc1
    0.2	6.4	4.0	2.1	65.0	/	14.1*
COc1ccccc1CN1CCCC(CN(CCN(C)C)C(=O)c2ccc(C)cc2)C1 (centres undefined)
    1.8	4.7	-2.9	4.8	-2.2	/	-0.6
CCn1nc(Cc2cccc3ccccc23)c(C#N)c1N
    -1.6	-6.0	2.2	-0.4	1.9	/	5.5
CCOC(=O)c1sc(=NC(=O)CCSc2ccccc2)n(C)c1C
    2.2	6.3	5.2	2.8	/	1.8%	3.0
Cc1cccc(N(CC(=O)NCc2ccco2)C(=O)CCC(=O)Nc2nccs2)c1C
    -0.1	9.7	5.3	-3.0	4.2	/	-0.3
CNCC/C=C1/c2ccccc2CSc2ccccc21
    1.8	/	7.4	2.2	0.5	-8.6%	-6.5
O=C(NNC(=O)c1ccccc1F)c1ccco1
    2.0	2.1	-2.7	-0.8	1.4	/	-3.3
CCN(CC)S(=O)(=O)c1cccc(C(=O)N/N=C/c2cc(OC)c(O)c(OC)c2)c1
    -1.1	7.5	4.8	0.5	99.3*	1.3%	7.5
CC(C)N1C(=O)C2ON(c3ccccc3)C(c3cccs3)C2C1=O (centres undefined)
    0.7	7.6	7.3	0.0	-4.9	16.8%	7.4
Cc1ccccc1OCC(=O)NC(=S)Nc1ccc2c3c(cccc13)CC2
    -1.2	4.6	-16.9	4.2	1.3	-5.8%	-2.2
O=C(NCCN1CCNC1=O)C1CCC(=O)N(CCc2ccc(Cl)cc2)C1 (centres undefined)
    2.4	-0.4	-1.1	-3.7	/	/	/
COc1ccc(N(CC(=O)N/N=C(\C)c2cccs2)S(=O)(=O)c2ccccc2)cc1Cl
    /	-9.7	/	2.1	-4.1	-3.4%	-0.5
CC(=O)N(c1ccc(Cl)cc1)c1nc(C)cc(C)c1C#N
    1.4	-4.3	-1.1	-1.1	2.5	-3.5%	-9.5
Cn1c(=O)c(=O)n(C)c2cc(S(=O)(=O)N3CCCC3C(=O)Nc3ccccc3F)ccc21 (centres undefined)
    1.4	-11.9	4.3	2.0	-7.9	-5.2%	4.2
O=C(NC1=NCCS1)c1ccc(C(F)(F)F)cc1
    1.3	-23.0	-6.3	3.8	-3.8	-7.7%	-2.1
COc1ccc(NC(=O)N2CCN(c3ccc([N+](=O)[O-])cc3)CC2)cc1
    3.0	-2.3	-3.6	-4.6	-13.1	7.2%	-2.1
Cc1nc2ccccc2n1Cc1ccc(Cl)cc1
    1.1	/	1.8	0.6	-15.5	/	-4.8
CCCC1=C(C(=O)OCC)C(c2ccco2)n2ncnc2N1 (centres undefined)
    -5.0	6.8	1.1	1.5	-4.8	-1.1%	2.1
CS(=O)(=O)N1CCN(c2ccc(Cl)cc2[N+](=O)[O-])CC1
    2.5	22.8	-2.6	0.1	-11.6	/	-11.3
CC(C)(C)c1ccc(C(=O)NC(=S)NNC(=O)COc2ccccc2)cc1
    -0.5	100.5*	-18.8	-0.7	98.8*	/	-5.8
CCCCN(CC)C(=O)CSc1nc2ccccc2c(=O)n1CC1COc2ccccc2O1 (centres undefined)
    -1.5	?	6.4	-1.4	1.0	-0.2%	-2.1
C=CCN1C(=O)C(C)(C)N(C(C)=O)c2ccccc21
    4.7	1.1	-0.1	-3.2	-5.9	-3.2%	0.2
Nc1cc2[nH]c(=O)c3ccccc3c2cc1Br
    1.3	/	-11.0	/	/	-2.9%	/
COc1ccc(C(=O)CCNc2ccc(C)c(Cl)c2)cc1
    -1.5	13.0	-0.9	6.8	-6.6	/	-6.0
Clc1ccc(NCc2nncn2-c2ccccc2)cc1
    1.4	-5.3	11.1	3.6	18.6	-2.2%	0.4
O=[N+]([O-])c1cccc(-c2nc(-c3ccccc3)no2)c1
    11.4	-1.5	6.3	2.2	-3.0	9.4%	5.6
CC(=O)C[C@H]1c2cc(C(F)(F)F)ccc2S(=O)(=O)N1c1ccc(N(C)C)cc1
    1.0	8.9	-8.8	?	?	/	1.8
COc1ccccc1CNC(=O)C1CSC2(C)CCC(=O)N12 (centres undefined)
    0.7	/	0.2	/	-1.8	-9.3%	-21.5
C=C1C(=O)O[C@@H]2[C@H]1CC[C@H](C)[C@]1(O)CCC(=O)[C@@]21C
    -0.3	-1.8	-2.5	3.5	15.3	-5.0%	2.6
O=c1c2ccccc2c(-c2cccc(C(F)(F)F)c2)nn1-c1ccccc1
    -0.1	7.7	4.4	1.0	-26.6	-21.3%	-2.9
Cc1ccc(/C=C2\CC(C)CC3=C2NC(=S)NC3c2ccc(C)cc2)cc1 (centres undefined)
    2.8	-3.6	-0.1	-0.6	/	32.1%	-2.6
O=C1c2ccccc2C(Nc2ccccc2)N1Cc1ccc2c(c1)OCO2 (centres undefined)
    -0.5	-6.4	-11.7	0.2	7.1	-3.5%	5.1
Fc1ccccc1/C=N/N1CCN(Cc2ccccc2Cl)CC1
    2.9	7.0	10.2	2.7	/	/	-2.8
O=C(CN1CCN(Cc2ccccc2)CC1)c1c[nH]c2ccccc12
    4.3	-1.6	8.5	-5.0	-5.2	?	2.8
CCOC(=O)C1(Cc2ccccc2C(F)(F)F)CCN(CC(O)CO)CC1 (centres undefined)
    2.4	-12.2	-1.2	-3.7	-5.2	?	6.6
CCN1CCN(C(=S)Nc2ccc(Cl)cc2Cl)CC1
    3.0	-7.4	0.6	-4.3	0.0	3.1%	-0.9
CCOC(=O)/C=C1\SCC(=O)N1CC(=O)NCc1ccc(OC)c(OC)c1
    1.1	-14.2	-0.6	3.6	-2.1	2.8%	3.1
O=C(CN1CCCC1)Nc1cccc(Cl)c1
    -0.8	33.3	-3.8	2.0	-9.7	-5.5%	-1.0
CCN(CC)S(=O)(=O)c1ccc2[nH]c(=O)cc(C(=O)N(C)C3CCS(=O)(=O)C3)c2c1 (centres undefined)
    4.0	/	-2.2	/	-1.6	-2.5%	-1.0
Cc1cc2c(=O)n(NC(N)=O)c(C)nc2s1
    -2.0	-1.4	-1.4	/	-2.4	0.0%	-3.1
Cc1nn(CC(=O)NC2C(=O)N3C(C(=O)O)=C(CSc4nnnn4C)CSC23)cc1Br (centres undefined)
    -1.2	19.2	-6.4	1.4	4.0	-9.4%	-0.1
CCOc1ccc(Cl)cc1S(=O)(=O)n1cnc2cc(C)c(C)cc21
    0.6	24.3	2.7	2.3	3.8	3.0%	-3.2

(next part)
Fields – HNF4A DNA FP	Calb FLC	Beta2AR agonist	RanGTP-Imp inh	ALR H2O2 inh	Vif TR-FRET	LANA-H2A inh
Cn1ncc(Cl)c(Oc2ccc(Cl)cc2)c1=O
    3.8	-0.1	11.4	-3.2	/	5.6%	0.9
O=C(NCCSc1ccccc1)c1ccc(CN2CCOCC2)cc1
    1.3	-2.3	4.8	-3.3	-6.8	3.2%	0.4
COc1cc(/C=C/C(=O)O)cc(S(=O)(=O)NCc2ccc3c(c2)OCO3)c1OC
    1.4	-1.8	1.9	1.4	-4.0	-6.0%	-4.5
O=C(c1ccccc1)N1CCN(C(=O)N2CCCCC2)CC1
    0.8	-3.8	-1.0	2.0	-4.0	8.5%	0.2
Cc1cccc(N2CCN(CC(O)COc3ccccc3)CC2)c1 (centres undefined)
    -2.3	/	4.9	/	/	-1.3%	/
Brc1ccc(N=NNc2ccccc2)cc1
    -2.0	-31.6	-5.0	-0.3	5.0	/	-0.2
O=C(CSc1ccc(-c2ccccc2)nn1)c1ccccc1
    0.7	46.1	-12.3	-0.1	-7.0	/	0.2
Cc1ccc(C(N)=Nc2ccccc2)cc1
    -0.4	-3.1	2.3	-3.2	-0.3	/	2.2
Cc1ccccc1NC(=O)Oc1cccc(OC(=O)c2ccccc2)c1
    -2.3	-0.4	-5.8	-0.5	5.7	13.2%	-2.3
COc1cc(/C=C/C(=O)Nc2cccc(S(=O)(=O)NC3=NCCCCC3)c2)ccc1OCC#N
    3.2	-6.5	13.3	-1.6	-5.8	-9.9%	-2.2
COC(=O)c1ccc(C)c(NC(=O)Cc2ccc([N+](=O)[O-])cc2)c1
    /	3.3	/	-0.9	-8.9	/	2.7
O=C(CN1CCN(C(=O)C2CCC2)CC1)Nc1ccc(F)cc1
    0.5	/	-3.6	/	0.6	-0.7%	-471.9
